TRPV1 PAM – HTS Assay for Compounds that Act as Potentiators of the Vanilloid Receptor 1; potentiation, % at 8.33 µM; Transient receptor potential cation channel subfamily V member 1 (Homo sapiens), Q8NER1; 320,000 compounds, 0.02% hits; TRPV1-expressing cells, Fluo-8 calcium influx, capsaicin EC20 potentiation; host cell line not named in the record; control for the full effect not named in the record; AID 540277, 2011; active means potentiation above 80%; inconclusive means 30% to 80%; inactive means below 30%; further: 0% is about no effect
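Fluo-8 calcium influx in TRPV1-expressing cells, kinetic read (ex 480/em 520 nm). Compound added and read 3 min for agonist activity, followed by capsaicin at EC20 final and 2 min further read for enhancement.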
TRPML1 ag – qHTS for Agonists of the Human Mucolipin Transient Receptor Potential 1 (TRPML1); Mucolipin-1 (Homo sapiens), Q9GZU1; TRPML1-expressing cells, Ca2+ dye fluorescence, FDSS; host cell line not named in the record; reference of the full effect not given here; activation, % (test concentration not listed); 410,000 compounds, 0.12% hits; in the data active = activation above about 50%; inconclusive = about 30% to 50%; inactive = below about 30%; further: 0% is about no effect; the text of the record puts the active cut at 80%
Target sequence (Q9GZU1 whole entry, looked up): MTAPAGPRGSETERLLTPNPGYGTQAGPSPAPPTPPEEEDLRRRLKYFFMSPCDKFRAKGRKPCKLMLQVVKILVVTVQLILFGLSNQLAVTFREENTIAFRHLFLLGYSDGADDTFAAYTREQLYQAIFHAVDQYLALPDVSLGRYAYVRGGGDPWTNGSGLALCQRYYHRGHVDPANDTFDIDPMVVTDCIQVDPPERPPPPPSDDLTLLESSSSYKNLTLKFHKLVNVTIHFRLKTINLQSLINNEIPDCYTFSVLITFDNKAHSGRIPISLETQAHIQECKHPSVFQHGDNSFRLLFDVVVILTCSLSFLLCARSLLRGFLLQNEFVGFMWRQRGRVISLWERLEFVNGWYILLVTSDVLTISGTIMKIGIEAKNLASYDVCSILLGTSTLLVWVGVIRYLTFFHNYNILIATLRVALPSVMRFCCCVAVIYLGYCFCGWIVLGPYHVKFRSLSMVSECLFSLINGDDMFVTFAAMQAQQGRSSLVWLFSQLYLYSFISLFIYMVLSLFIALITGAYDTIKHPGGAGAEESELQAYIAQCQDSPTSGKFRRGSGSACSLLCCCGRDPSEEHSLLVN
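Tet-induced TRPML1-DL cells, 1,500 per well, cultured overnight, were loaded with a no-wash Ca2+ dye for 45–90 min. Calcium fluorescence was recorded on the FDSS for 110 s after compound addition, before the EC80 agonist (4 uM 54-4) was added.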
Six1-Eya2 inh – qHTS Assay for Inhibitors of the Six1/Eya2 Interaction. Homeobox protein SIX1 (Homo sapiens) + Protein phosphatase EYA2 (Homo sapiens), …. AlphaScreen GST-Six1/His-Eya2 binding, biochemical; stronger effect = lower value; control for the full effect not named in the record. activity change, % (no concentration beside the values). 360,000 compounds, 0.56% hits; in the data active = activity change below about -65%; inconclusive = about -30% to -65%; inactive = above about -30%; further: on the % scale 0 is the no-effect control and ±100 the full control effect
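AlphaScreen luminescence read after one hour at 37 °C in darkness. Pin-transferred compounds met GST-Six1 and His-Eya2 protein (5X stock 250 nM/500 nM) plus glutathione donor and Ni-chelate acceptor beads (5X, 50 ug/mL).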
CtBP-E1A inh – qHTS Assay for Inhibitors of the CtBP/E1A Interaction. 340,000 compounds, 0.49% hits. AlphaScreen GST-E1A/His-CtBP binding, 1536-well; stronger effect = lower value; control for the full effect not named in the record. activity change, % (no concentration beside the values). CtBP / adenovirus E1A interaction (AlphaScreen); in the data active means activity change below about -65%; inconclusive means about -30% to -65%; inactive means above about -30%; further: on the % scale 0 is the no-effect control and ±100 the full control effect
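Homogeneous bead-based format: GST-tagged E1A captured on glutathione donor beads, His-tagged CtBP on nickel acceptor beads; compounds precede bead addition by 2 h at 37 °C.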
D2 PAM – Beta-Arrestin HTS for Positive Allosteric Modulators of the Human D2 Dopamine Receptor: Potentiators | D(2) dopamine receptor (Homo sapiens), P14416 | DiscoveRx D2 beta-arrestin cells, luminescence, 90 min; 100% = 57 uM dopamine signal | potentiation, % (concentration not given with the values) | 360,000 compounds, 0.23% hits | AID 624464, 2012; active = potentiation of 50% or more; inconclusive = 30% to 50%; inactive = 30% or less;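 further: tested on top of an EC20 dose of dopamine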
Target sequence (P14416 whole entry, looked up): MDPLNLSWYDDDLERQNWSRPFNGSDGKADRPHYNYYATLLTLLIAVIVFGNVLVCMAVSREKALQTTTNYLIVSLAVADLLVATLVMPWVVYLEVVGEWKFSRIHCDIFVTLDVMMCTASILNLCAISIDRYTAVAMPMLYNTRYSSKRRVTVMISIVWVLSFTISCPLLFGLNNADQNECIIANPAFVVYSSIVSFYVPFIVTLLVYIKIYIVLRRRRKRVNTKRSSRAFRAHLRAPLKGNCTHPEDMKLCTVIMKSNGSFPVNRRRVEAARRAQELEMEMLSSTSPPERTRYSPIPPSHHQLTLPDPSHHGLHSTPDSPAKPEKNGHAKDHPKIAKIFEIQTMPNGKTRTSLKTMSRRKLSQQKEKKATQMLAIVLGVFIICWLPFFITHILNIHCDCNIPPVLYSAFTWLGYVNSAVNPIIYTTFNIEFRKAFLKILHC
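PathHunter beta-arrestin assay in DiscoveRx D2 cells. Compounds were added with an EC20 of dopamine (50 nM final) for 90 min at 37 deg C. Luminescence was read 1 h after detection reagent, with 57 uM dopamine as the EC100 control.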
TRPML1 inh – qHTS for Inhibitors of the Human Mucolipin Transient Receptor Potential 1 (TRPML1); TRPML1-inducible cells, Ca2+ dye fluorescence, FDSS; stronger effect = lower value; inhibition of EC80 agonist-evoked calcium signal; activity change, negative = inhibition, % (test concentration not listed); 390,000 compounds, 0.02% hits; in the data active means activity change below about -50%; inconclusive means about -30% to -50%; inactive means above about -30%;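 further: stimulus is agonist 54-4 at its EC80 concentration; on the % scale 0 is the no-effect control and ±100 the full control effect; compound concentration not given in the record; the text of the record puts the active cut at -80%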
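Tet-induced TRPML1-DL cells loaded with Ca8 no-wash calcium dye were read kinetically on FDSS. Compound addition was followed by EC80 agonist 54-4 (4 uM final); inhibition was read over 110 s.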
Numbers without * were called inactive; u = inconclusive; x = not tested or not shown; & = joins results of further samples.

Compound,TRPV1 PAM,TRPML1 ag,Six1-Eya2 inh,CtBP-E1A inh,D2 PAM,TRPML1 inh
O=C(COc1ccc(F)cc1)N(c1ccccn1)C1CCCCC1,-17.2,0.9,6.3,-8.8,-13.1,21.1
Cc1ccc(S(=O)(=O)/N=C(\N)c2ccc(F)cc2)cc1,-1.7,0.0,6.4,4.9,-2.5,-6.9
CCc1ccc(S(=O)(=O)Nc2cc3c(cc2N2CCOCC2)n(C)c(=O)c(=O)n3C)cc1,-18.9,0.2&1.5,-0.5,-5.8,-5.2,4.0&-1.2
COc1ccc(C(CNC(=O)c2ccc(S(=O)(=O)Nc3ccccc3C)cc2)N2CCOCC2)cc1 (centres undefined),-1.2,-0.7,3.0,7.8,-2.9,-1.3
O=C(O/N=C1\CCCc2ccccc21)c1ccc(F)cc1,-5.5,6.4,17.1,-7.3,0.6,-2.9
COc1ccc(/C=N/Nc2nccnc2Cl)cc1,-3.2,-0.1,-2.9,0.6,-12.6,1.9
Cc1cccc(CCNC(=O)CCCOc2cc(=O)n(C)c3ccccc23)c1,-8.6,-0.3,-0.8,-4.0,1.3,3.4
CC1CC(C)CN(C(=O)COC(=O)c2ccc(N3CCCC3=O)cc2)C1 (centres undefined),x,-0.7,-0.9,x,-4.2,1.0

An excerpt from above in order of their number in Six1-Eya2 inh, rising:
molecule | Six1-Eya2 inh
Cc1cccc(CCNC(=O)CCCOc2cc(=O)n(C)c3ccccc23)c1 | -0.8
CCc1ccc(S(=O)(=O)Nc2cc3c(cc2N2CCOCC2)n(C)c(=O)c(=O)n3C)cc1 | -0.5
O=C(O/N=C1\CCCc2ccccc21)c1ccc(F)cc1 | 17.1

Other entries
Compound,TRPV1 PAM,TRPML1 ag,Six1-Eya2 inh,CtBP-E1A inh,D2 PAM,TRPML1 inh
COc1ccccc1NC(=O)c1ccccc1NC(=O)c1ccccc1C(=O)O,2.4,x,4.3,x,-2.5,x
COc1ccc2oc(C(=O)OC/C(O)=C(\C#N)c3nc4ccccc4[nH]3)c(C)c2c1,3.3,0.7,-0.1,-11.2,-3.7,-3.5
CSc1nsc(SC)c1NC(=O)OCCc1ccccn1,-0.8,-0.4,5.1,-0.6,1.9,-2.3
COc1cccc(Nc2ncccc2C(=O)O)c1,-12.5,1.0,-0.8,2.4,-5.3,-5.1
CCOC(=O)N1CCN(C(=O)Cc2ccc(-n3c(=S)[nH]c4ccccc4c3=O)cc2)CC1,-20.1,1.6,-0.4,-2.6,-12.2,-2.8
CCOC(=O)c1cc(-c2ccccc2)n(CCC(=O)N2CCN(c3ccc(OC)cc3)CC2)c1C,-3.0,2.6,u,u,14.0,9.8
CCn1cc(Br)c(C(=O)Nc2ccc(Cl)cc2Cl)n1,-14.6,0.3,5.0,7.3,-9.3,-0.9
c1ccc(Cn2nnc3c(N4CCN(Cc5ccc6c(c5)OCO6)CC4)ncnc32)cc1,-15.2,1.6,-21.7,-23.1,-12.9,4.7
CCS(=O)(=O)Nc1cccc(-c2nc3cccnc3s2)c1C,16.4,0.0,3.3,0.1,-9.6,-3.8
CN(C)/C=C/C(=O)c1cccc(Cl)c1,-3.9,-0.2,0.5,-5.2,-9.8,0.7
CCOc1ccc(N2C(=O)CSC2=NC#N)cc1,-0.3,0.2,2.9,-0.7,-14.6,-16.7
NC(=O)CC(NC(=O)Cc1ccc(Br)cc1)c1ccc(NCCN2CCOCC2)c([N+](=O)[O-])c1 (centres undefined),19.3,0.1,0.7,0.1,-5.6,8.0
COc1cccc(Nc2n[nH]c(=S)s2)c1,1.1,-0.6,u,-11.9,12.0,2.3
O=C(NCc1cccs1)c1ccc2sc(C3=C[C@@H](O)[C@@H](O)[C@@H](CO)O3)nc2c1,x,-0.4,-23.4,-18.5,-23.2,9.0
O=[N+]([O-])c1cc(C(F)(F)F)ccc1NC1CCN(Cc2ccccc2)CC1,-16.6,1.0,u,u,-44.1,16.8
COCC(=O)Nc1cc([N+](=O)[O-])ccc1C,-14.0,-0.6,0.5,0.5,0.6,0.5
Cc1nc([N+](=O)[O-])c(C(=O)OCc2ccccc2)n1C,u,-0.4,5.4,-19.1,4.1,-3.8
COc1ccc(CC(=O)N2CCc3ccccc32)cc1,4.5,-0.2,13.3,6.0,-12.3,2.1
COc1ccc(OC)c(Nc2nnc(C)c(=O)[nH]2)c1,28.2,0.0,2.7,-3.4,-6.5,19.2
CCOC(=O)C1=NN(C(=O)Cc2ccccc2)C(O)(C(C)(C)C)C1 (centres undefined),-16.8,0.0,-0.8,-0.5,-0.3,-6.1
COC(=O)C1=CN(CC2CCCO2)C=C(C(=O)OC)C1c1ccccc1C(F)(F)F (centres undefined),-18.0,-0.3,13.7,22.6,11.6,-1.9
O=C(O)CSc1nnc(-c2cccc(S(=O)(=O)N3CCOCC3)c2)n1-c1ccc(F)cc1,x,-0.7,-0.6,x,1.7,-3.4
N#Cc1c2n(c3c(=O)n(Cc4ccccc4Cl)cnc13)CCCCC2,-4.8,0.3,-10.3,-0.9,-22.6,15.4
O=C(CN1C(=O)c2ccccc2C1=O)NCC1COc2ccccc2O1 (centres undefined),21.9,1.5,-7.4,-2.3,4.5,-14.3
Cc1cc(C)cc(Cn2cc(CN3CC(N4CCSCC4)CS3(=O)=O)nn2)c1 (centres undefined),x,-0.3,11.8,-15.2,x,x
CCc1noc(C)c1C(=O)OC(C)C(=O)NCc1ccc(OC)cc1 (centres undefined),10.2,-0.1,7.4,-1.4,-2.5,4.0
COc1ccc(C2NC(=O)c3n[nH]c(C)c32)c(OC)c1 (centres undefined),x,-0.8,-7.1,1.9,-1.4,-1.2
O=C(Nc1ccon1)c1cc2c(s1)CCCC2,9.1,0.8,-15.9,-21.7,-6.1,-5.7
CC[C@H](C)[C@H](NC(=O)OCc1ccccc1)C(=O)OCC(=O)N1CCN(c2ccc(OC)cc2)CC1,x,-0.4,-24.7,x,2.6,-7.1
O=C(CSc1nnnn1C1CCCC1)Nc1ccc(F)cc1,4.9,0.1,-0.5,2.6,-9.0,-4.5
O=C(Nc1cccc(F)c1)C1CCN(S(=O)(=O)c2cccc3nonc23)CC1,-6.8,-0.3,-7.0,0.6,-2.9,18.6
CC[C@@]1(C(=O)OC)N[C@H](CN(C)C(=O)Nc2ccc(C)cc2)[C@@H]2C(=O)N(Cc3ccccc3)C(=O)[C@@H]21,x,0.6,-22.7,-8.5,-5.6,2.0
O=C(NCCc1ccccc1F)C1CCCN(c2nc3ccccc3s2)C1 (centres undefined),-5.8,2.6,1.0,5.7,3.6,-3.6
COC(OC)c1ccnc(-c2ccc(OC(=O)c3ccccc3)cc2)n1,7.5,0.2,8.7,4.6,-4.5,22.0
CC1CC(C)CN(C(=O)COC(=O)c2cccc([N+](=O)[O-])c2)C1 (centres undefined),-2.5,-0.2,-0.5,3.5,-6.5,14.5
Cc1ccc(-c2nc3ccccc3s2)cc1S(=O)(=O)N1CCCC1,-2.7,1.0,7.0,23.3,-0.9,64.6
COc1ccc(NC(=O)C2C3CCC(C3)C2C(=O)O)cc1OC (centres undefined),-0.5,-0.9,-1.8,-2.9,8.0,5.3
CCOc1ccccc1NC(=O)C1CCC(CNc2c(N3CCOCC3)c(=O)c2=O)CC1 (centres undefined),-7.0,-0.4,-3.6,4.4,-3.2,23.9
CCN(C(=S)Nc1cccc2ccccc12)c1ccccc1,x,-0.2,6.8,-8.2,-24.2,2.9
CC(C)(C)NC(=O)C1c2ccccc2Oc2ccccc21,10.5,x,1.3,x,6.7,x
COc1ccc(C2Nc3ccccc3C(=O)N2NC(C)=O)cc1OC (centres undefined),-0.1,-0.2,3.3,5.3,-1.1,0.1
Cc1ccc(NS(=O)(=O)c2ccc3[nH]c(=O)oc3c2)cc1Cl,0.6,3.4,-3.0,-1.8,4.0,-25.3
CCOC(=O)c1[nH]c(C)c(C(=O)NCCN2CCOCC2)c1C,4.2,0.2,4.9,-13.7,-2.3,-3.5
COC(=O)c1ccc(C(=O)OC)c(NC(=O)c2cnc3n(c2=O)CCS3)c1,-30.0,0.8,4.7,7.1,6.1,-11.7
Nc1ccc2nn(-c3cccc4ccccc34)nc2c1,9.8,-0.3,13.9,13.7,6.8,7.0
COc1ccc(S(=O)(=O)N2CCC(C(=O)Nc3cccc(C(C)=O)c3)CC2)cc1,-1.6,1.5,0.9,-12.1,-22.4,20.2
O=C(NCc1ccccc1Cl)c1cc(=O)[nH]c2ccccc12,4.9,0.0,-0.8,-13.1,3.6,-20.9
Cc1ccccc1NC(=O)OCc1cccnc1Oc1ccc(Cl)cc1,-23.0,0.9,16.2,19.7,-4.4,23.2
Cc1nc2c(OCc3ccc(F)c(F)c3)cccn2c1N(C)C(=O)CCC1CCCC1,x,-0.1,-2.9,-1.5,-2.7,x
CCSc1cc(C)nc2c(-c3ccccc3)c(C)nn12,-2.0,0.6,3.3,-0.1,-9.9,1.7
Cc1cccc(OCCNC(=O)CSc2ccc(C(F)(F)F)cc2[N+](=O)[O-])c1,5.0,1.4,-18.5,-6.1,-27.4,-3.0
CCOc1ccccc1C(=O)N[C@H](C(=O)OCc1csc(CC(=O)Nc2ccc(C)cc2)n1)C(C)C,x,-0.9,-6.2,0.5,-8.3,-13.2
Cc1c(NC(=O)c2ccccc2N)cccc1C(=O)O,-0.2,-0.5,-0.2,2.6,-4.1,-9.4
Cc1c(C(=O)N2CCCC2)oc2c1-c1nn(CC(=O)NCCCN3CCCCC3C)cc1CC2 (centres undefined),3.9,-0.4,7.5,6.0,-0.7,76.0
COc1cccc(CN2CCNC(=O)C2CC(=O)NCCn2cccn2)c1OC (centres undefined),-1.9,0.0,5.1,1.3,-0.7,2.1
COc1cccc(NC(=O)C2(C)CCN2Cc2ccc(SC)cc2)c1 (centres undefined),x,-0.6,-2.7,0.4,-14.8,x

The list goes on:
Compound,TRPV1 PAM,TRPML1 ag,Six1-Eya2 inh,CtBP-E1A inh,D2 PAM,TRPML1 inh
COC(=O)c1sccc1NC(=O)c1ccc(C#N)cc1,-7.7,2.4,0.0,0.0,-7.0,-13.6
O=C1CNC(=S)N1c1nc(-c2ccccc2)cs1,15.2,0.2,3.2,-10.3,-2.1,1.5
COc1cccc(C(=O)Nc2nc(-c3ccc4c(c3)OCO4)cs2)c1,7.8,1.3,-3.8,-5.0,-3.2,3.1
CC(C)c1ccc(NC(=O)CCCN2C(=O)NC(C)(C)C2=O)cc1,-26.9,-0.1,13.7,8.8,-22.2,0.8
COCCSc1nnc(NC(=O)c2ccco2)s1,0.2,-0.7,4.2,u,-3.4,-15.5

Compound activity from PubChem.

Compounds were not picked by outcome (roughly 0.95% active in at least one column).
